High-throughput results: PubChem BioAssay, several laboratories
Env fusion inh: blocks HIV Env-driven cell-cell fusion. HeLa-JRFL Env/CEM21 cell fusion, luciferase. inhibition, % at 12.3 µM. hit rate 1.1% among 360,000. AID 651610;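 active = mean replicate inhibition score of at least 50 and every replicate individually at or above 50; inconclusive = only one of the two criteria met; inactive = mean below 50 and not all replicates reaching 50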;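 also: 0% = plate neutral controls and 100% = maraviroc near 300 nM; one replicate is shown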
MT1-MMP act inh: inhibitors of human MT1-MMP activation | P50281 | HT1080 RFP-PRO-GFP cells, GFP/RFP ratio fluorescence, overnight; percent of plate control window, DMSO zero | GFP/RFP ratio change, % at 20 µM | hit rate 0.061% among 360,000 | AID 651647;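 active = GFP/RFP ratio change of at least 30% with cell ATP level not reduced by more than half and red fluorescence within 50% of control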; also: strong numbers were not always called active
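Read-out: GFP/RFP fluorescence ratio; Test system: RFP-PRO-GFP reporter HT1080 cells; Compound dosing: single-point 20 µM compound, 1% DMSO; Times: overnight compound exposure at 37 °C.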
eIF4H inh: inhibitors of RNA binding by human eIF4H; Q15056; eIF4H fluorescence polarization binding assay; inhibition, % at 35 µM; hit rate 0.94% among 290,000; AID 2012;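 active = 50% or more with normal probe brightness, or confirmed in later tests; inconclusive = above 50% with abnormal brightness, or retests that disagree; inactive = below 50% or failed in later tests; about a fifth of its hits are not listed in these tables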;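 also: calls also rest on retests at 20 µM and on dose response follow-up; 0% = protein and probe with vehicle and 100% = probe without protein; strong numbers were not always called active; many hits fall short of the cut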
Rce1 inhib: blocks yeast Ras-converting enzyme. AID 2563. hit rate 0.27% among 290,000. calls only. yeast membranes, quenched prenylated peptide cleavage fluorescence. Q03530;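 active = fall in fluorescence gain of 50% or more versus controls, with final raw signal at or below 3038400; inconclusive = same 50% fall but final raw signal above 3038400; inactive = fall in fluorescence gain under 50%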;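 also: plate controls were neutral control wells for no effect and wells lacking membranes for full effect; tested at 10 µM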
CSC inhib: blocks cancer stem cells; cancer stem cell-like cells viability, luminescence; inhibition, % at 7.5 µM; hit rate 1.1% among 300,000; AID 2717;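 active = mean at 75% or more and at least half the replicates too; inconclusive = mean and replicates disagree; tested in HMLE shEcad cells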;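 also: 0% = median of negative and 100% = median of positive control wells; the first replicate is given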
PABP FP inh: blocks human PABP binding to poly(A) RNA; P11940; fluorescence polarization; inhibition, % at 35 µM; hit rate 1% among 290,000; AID 2014;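 active = 50% or more with normal probe brightness, or confirmed in later tests; inconclusive = above 50% with abnormal brightness, or retests that disagree; inactive = below 50% or failed in later tests; about a fifth of its hits are not listed in these tables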;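 also: calls also rest on retests at 20 µM and on dose response follow-up; controls were probe without protein and protein plus probe with vehicle; some compounds called inactive have numbers as strong as hits; many hits fall short of the cut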
Target sequence (P11940 whole entry, looked up): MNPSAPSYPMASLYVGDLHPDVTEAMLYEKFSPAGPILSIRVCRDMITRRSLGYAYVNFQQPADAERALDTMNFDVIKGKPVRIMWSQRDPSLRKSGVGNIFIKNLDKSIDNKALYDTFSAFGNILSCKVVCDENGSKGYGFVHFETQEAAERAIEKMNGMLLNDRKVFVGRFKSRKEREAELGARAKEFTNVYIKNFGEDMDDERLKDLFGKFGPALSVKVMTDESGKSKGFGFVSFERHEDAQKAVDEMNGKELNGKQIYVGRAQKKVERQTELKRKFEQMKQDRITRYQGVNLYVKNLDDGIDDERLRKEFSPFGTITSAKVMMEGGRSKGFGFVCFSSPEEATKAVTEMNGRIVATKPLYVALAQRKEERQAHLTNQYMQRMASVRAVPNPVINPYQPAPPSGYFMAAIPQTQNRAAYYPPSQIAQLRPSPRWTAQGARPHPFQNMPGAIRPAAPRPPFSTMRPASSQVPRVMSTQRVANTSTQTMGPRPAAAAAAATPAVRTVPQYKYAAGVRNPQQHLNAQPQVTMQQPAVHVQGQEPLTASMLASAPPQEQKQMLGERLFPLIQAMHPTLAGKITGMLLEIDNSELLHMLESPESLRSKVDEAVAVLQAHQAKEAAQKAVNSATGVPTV
UUG fidelity: yeast start codon fidelity modulation; hit rate 0.13% among 350,000; S. cerevisiae UUG-firefly luciferase reporter, luminescence/redox ratio; activity score, % at 18.7 µM; AID 602363;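 active = replicate mean at a twofold rise or more, about +100% in these data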;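 also: firefly luciferase made from a UUG start codon reports start codon fidelity; reporter light over untreated wells divided by growth signal over untreated wells; some hits fall short of that in this replicate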
eIF4H inh retest: further read-out of eIF4H inh, marked with its call; inhibition, %; compound at 20 µM; confirmation average;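 mean of two retest wells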
PABP FP inh retest: second read-out of PABP FP inh, no call of its own (marks repeat the call); inhibition, %; compound at 20 µM; confirmation repeats;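 mean of two retest wells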
MT1-MMP act inh RFP: second read-out of MT1-MMP act inh, no call of its own (marks repeat the call); RFP signal change, %; measured here: RFP expression control read;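 0 = vehicle wells; hits needed this value within 50% of zero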
* = called active by the depositor; i = inactive; ? = inconclusive; . = not tested or not shown; + = active, no number.

SMILES	Env fusion inh	MT1-MMP act inh	MT1-MMP act inh RFP	eIF4H inh	Rce1 inhib	CSC inhib	PABP FP inh	UUG fidelity	others
O=C(NCC1CCCO1)c1ccc(CS(=O)(=O)c2c(Cl)cccc2Cl)o1 (stereo not given)	3	0	7	6	i	-15	63	-5	eIF4H inh retest=0;PABP FP inh retest=2
CC1C(=O)N2CCCc3cc(S(=O)(=O)N(C)c4ccccc4)cc1c32 (stereo not given)	4	1	2	.	i	3	.	-19
O=C(Nc1nnc(-c2ccccn2)o1)c1ccc(Br)cc1	3	3	6	6	i	11	-13	.
COc1cccc(CNC(=O)C2CC(=O)N(c3ccc4c(c3)OCCO4)C2)c1 (stereo not given)	2	1	-4	.	i	-7	.	-11
CCOc1ccc(C(=O)C(CCC(CN(C)C)C(=O)c2ccc(OCC)cc2)CN(C)C)cc1 (stereo not given)	-114	-17	-35	-9	i	.	1	.
CCCCCCNS(=O)(=O)c1ccc(OC)c(OC)c1	-30	3	-2	2	i	-9	6	-9
O=C(N/N=C(\Cc1ncc[nH]1)c1ccccc1)c1cccnc1	5	2	7	5	i	100*	4	.
CCOc1ccc(C(=O)N2CCC(C(=O)c3ccc4c(c3)OCCO4)CC2)cc1	?	-2	-8	1	i	0	0	3
Cn1c(=O)c2sccc2n2c(CCCC(=O)NCc3ccco3)nnc12	-6	-1	3	-5	i	-9	10	-17
O=S(=O)(c1ccc(Br)cc1Cl)N1CCCN(c2ccc(C(F)(F)F)cn2)CC1	8	1	-7	.	.	27	.	-11
COc1ccc(CNC(=O)CC2C[C@H](C(=O)N3CCOCC3)[C@@]3(CCC4CCCC4)c4[nH]c5ccccc5c4CCN3C2=O)cc1OC (stereo not given in full)	-107	-17	-17	.	.	.	.	-11
CN1CCc2cc(Cl)c(O)cc2[C@@H](c2ccccc2)C1	32	-2	2	8	i	-9	2	6
CC(=O)c1c(N2CCN(C)CC2)[nH]c(-c2ccccc2)nc1=S	.	2	8	-12	i	-18	-6	.
CN1CCN(CC#CCC(O)(c2ccccc2)C2CCCC2)CC1 (stereo not given)	.	-7	-1	0	i	.	-8	-7
Cc1ccccc1CN1CCNC(=O)C1CC(=O)NCCN1CCCCC1=O (stereo not given)	3	-1	2	14	i	1	24	-7
Cc1ccc(Sc2ccc([N+](=O)[O-])cc2[N+](=O)[O-])nc1	28	-1	5	-5	i	67	-3	.
COc1ccc(Cc2nnc(SC(C)C(=O)Nc3ccc(F)cc3Cl)o2)cc1 (stereo not given)	0	2	-2	.	i	-18	.	.
O=C(c1cccc(C(F)(F)F)c1)C1CCCN(Cc2ccc(OCCO)cc2)C1 (stereo not given)	12	-1	-1	-5	i	25	0	.
C=CCOc1nc2c(c(=O)n(Cc3ccc(Cl)cc3)c(=O)n2C)n1C	.	7	-1	-9	i	-1	-6	-17
Cc1ccc(-c2nc(CN(Cc3c(C)nn(C)c3C)C(C)C)c(C)o2)o1	-7	-3	-1	3	i	-5	2	.
N#Cc1ccsc1NC(=O)C1CCN(S(=O)(=O)c2cccs2)CC1	-59	-3	-2	.	i	-14	.	-9
CC(Oc1ccc(Br)cc1)C(=O)Nc1ccc(S(=O)(=O)Nc2nccs2)cc1 (stereo not given)	-4	0	-2	-7	i	-17	-3	5
CN(C)C(=O)N1CCN(c2nc(-c3ccccc3)cs2)CC1	-147	14	-1	-11	i	6	-5	-3
O=C(Nc1cccc(-c2cn3cccnc3n2)c1)c1cccs1	19	1	2	-6	?	-10	12	-14

Part of the list above in order of count of non-hydrogen atoms, lowest first.
SMILES	Env fusion inh	MT1-MMP act inh	MT1-MMP act inh RFP	eIF4H inh	Rce1 inhib	CSC inhib	PABP FP inh	UUG fidelity	others
CN1CCc2cc(Cl)c(O)cc2[C@@H](c2ccccc2)C1	32	-2	2	8	i	-9	2	6
CN(C)C(=O)N1CCN(c2nc(-c3ccccc3)cs2)CC1	-147	14	-1	-11	i	6	-5	-3
CC(=O)c1c(N2CCN(C)CC2)[nH]c(-c2ccccc2)nc1=S	.	2	8	-12	i	-18	-6	.
N#Cc1ccsc1NC(=O)C1CCN(S(=O)(=O)c2cccs2)CC1	-59	-3	-2	.	i	-14	.	-9
C=CCOc1nc2c(c(=O)n(Cc3ccc(Cl)cc3)c(=O)n2C)n1C	.	7	-1	-9	i	-1	-6	-17
Cc1ccc(-c2nc(CN(Cc3c(C)nn(C)c3C)C(C)C)c(C)o2)o1	-7	-3	-1	3	i	-5	2	.
COc1ccc(Cc2nnc(SC(C)C(=O)Nc3ccc(F)cc3Cl)o2)cc1 (stereo not given)	0	2	-2	.	i	-18	.	.
O=C(c1cccc(C(F)(F)F)c1)C1CCCN(Cc2ccc(OCCO)cc2)C1 (stereo not given)	12	-1	-1	-5	i	25	0	.
COc1ccc(CNC(=O)CC2C[C@H](C(=O)N3CCOCC3)[C@@]3(CCC4CCCC4)c4[nH]c5ccccc5c4CCN3C2=O)cc1OC (stereo not given in full)	-107	-17	-17	.	.	.	.	-11

Other entries:
SMILES	Env fusion inh	MT1-MMP act inh	MT1-MMP act inh RFP	eIF4H inh	Rce1 inhib	CSC inhib	PABP FP inh	UUG fidelity	others
COc1ccc(-c2csc(NC(=O)c3ccccc3NS(=O)(=O)c3ccc(F)c(F)c3)n2)cc1	43	-12	-35	-2	i	114*	6	2
CCN1CCN(C(c2cccs2)C(C)NC(=S)Nc2cccc(C)c2C)CC1 (stereo not given)	20	-6	-1	-3	i	9	3	.
O=Nc1c(O)n(Cc2ccc(Cl)cc2)c2ccccc12	38	-5	-2	3	i	29	10	-12
CCOC(=O)CC(=O)NC(CC(=O)OC)c1ccc(C(C)C)cc1 (stereo not given)	6	2	11	-8	i	7	8	.
CC(=O)OCC(=O)[C@@]12OC3(CCCC3)O[C@@H]1C[C@H]1[C@@H]3CCC4=CC(=O)C=C[C@]4(C)[C@@]3(F)[C@@H](O)C[C@@]12C	i	-7	-7	12	+	-5	5	17
COC(=O)c1ccccc1N=Nc1c(N)n[nH]c1N	-149	1	-1	-8	i	-1	12	.
